From PubChem
MT1-MMP act inh: blockers of MT1-MMP proenzyme processing, primary screen, HT1080 RFP-PRO-GFP cells, GFP/RFP fluorescence; AID 651647, 2012; GFP/RFP ratio fluorescence, overnight; percent of plate control window, DMSO zero; Matrix metalloproteinase-14 (Homo sapiens), P50281; GFP/RFP ratio change, % at 20 µM; 360,000 tested, 0.061% active;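 active = GFP/RFP ratio change of at least 30% with cell ATP level not reduced by more than half and red fluorescence within 50% of control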; note: strong numbers were not always called active
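system = RFP-PRO-GFP reporter HT1080 cells | dosing = 20 µM single dose, 1% DMSO | timing = overnight cell settling, then overnight compound exposure, 37 °C, 5% CO2 | read-out basis = GFP/RFP fluorescence ratio | controls = DMSO and RFP-L50D-GFP cell wells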
CSC inhib: cancer stem cell viability inhibitors, primary screen, luminescence. cancer stem cell-like cells viability. inhibition, % at 7.5 µM. 300,000 tested, 1.1% active. AID 2717, 2010;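 active = mean at 75% or more and at least half the replicates too; inconclusive = mean and replicates disagree; tested in HMLE shEcad cells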;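 note: 0% = median of negative and 100% = median of positive control wells; the first replicate is given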
PABP FP inh: PABP poly(A) RNA binding inhibitors, primary screen, biochemical, fluorescence polarization, uHTS; Polyadenylate-binding protein 1 (Homo sapiens), P11940; inhibition, % at 35 µM; AID 2014, 2009; 290,000 tested, 1% active;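 active = 50% or more with normal probe brightness, or confirmed in later tests; inconclusive = above 50% with abnormal brightness, or retests that disagree; inactive = below 50% or failed in later tests; about a fifth of its hits are not listed in these tables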;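 note: calls also rest on retests at 20 µM and on dose response follow-up; controls were probe without protein and protein plus probe with vehicle; some compounds called inactive have numbers as strong as hits; many hits fall short of the cut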
eIF4H FP inh: human eIF4H binding inhibitors, primary screen, translation initiation inhibitor project, biochemical, uHTS, fluorescence polarization; Eukaryotic translation initiation factor 4H (Homo sapiens), Q15056; eIF4H fluorescence polarization binding assay; inhibition, % at 35 µM; 290,000 tested, 0.94% active;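 active = 50% or more with normal probe brightness, or confirmed in later tests; inconclusive = above 50% with abnormal brightness, or retests that disagree; inactive = below 50% or failed in later tests; about a fifth of its hits are not listed in these tables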;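 note: calls also rest on retests at 20 µM and on dose response follow-up; 0% = protein and probe with vehicle and 100% = probe without protein; strong numbers were not always called active; many hits fall short of the cut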
Yeast UUG start: modulators of yeast start codon fidelity, primary screen, whole organism, S. cerevisiae, single point, plate reader; S. cerevisiae UUG-firefly luciferase reporter, luminescence/redox ratio; activity score, % at 18.7 µM; 350,000 tested, 0.13% active;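 active = replicate mean at a twofold rise or more, about +100% in these data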;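 note: firefly luciferase made from a UUG start codon reports start codon fidelity; reporter light over untreated wells divided by growth signal over untreated wells; some hits fall short of that in this replicate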
Rce1 inhib: yeast Rce1p protease inhibitors, primary screen, biochemical, fluorescence, cell-free homogeneous; 290,000 tested, 0.27% active; yeast membranes, quenched prenylated peptide cleavage fluorescence; calls only; AID 2563, 2010; CAAX prenyl protease 2 (Saccharomyces cerevisiae (strain ATCC 204508 / S288c)), Q03530;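 active = fall in fluorescence gain of 50% or more versus controls, with final raw signal at or below 3038400; inconclusive = same 50% fall but final raw signal above 3038400; inactive = fall in fluorescence gain under 50%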;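 note: plate controls were neutral control wells for no effect and wells lacking membranes for full effect; tested at 10 µM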
Target sequence (Q03530 whole entry, looked up): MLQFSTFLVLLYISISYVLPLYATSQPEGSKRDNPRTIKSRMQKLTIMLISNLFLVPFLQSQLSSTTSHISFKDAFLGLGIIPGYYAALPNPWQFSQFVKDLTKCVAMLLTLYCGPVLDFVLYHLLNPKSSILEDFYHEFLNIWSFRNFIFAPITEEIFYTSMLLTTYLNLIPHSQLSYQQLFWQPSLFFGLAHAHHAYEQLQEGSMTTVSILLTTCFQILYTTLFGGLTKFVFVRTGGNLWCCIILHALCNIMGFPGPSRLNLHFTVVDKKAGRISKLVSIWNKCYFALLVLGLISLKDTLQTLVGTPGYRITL
Env fusion inh: inhibitors of HIV-1 Env-driven cell-cell fusion, primary screen, HeLa-JRFL effector, CEM21 target cells, luciferase; inhibition, % at 12.3 µM; 360,000 tested, 1.1% active; AID 651610, 2012;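 active = mean replicate inhibition score of at least 50 and every replicate individually at or above 50; inconclusive = only one of the two criteria met; inactive = mean below 50 and not all replicates reaching 50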;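 note: 0% = plate neutral controls and 100% = maraviroc near 300 nM; one replicate is shown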
eIF4H FP inh retest: also measured in eIF4H FP inh; calls as there; inhibition, %; compound at 20 µM; confirmation average;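 mean of two retest wells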
PABP FP inh retest: recorded beside PABP FP inh, whose call it bears; inhibition, %; compound at 20 µM; confirmation repeats;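 mean of two retest wells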
MT1-MMP act inh RFP: further read-out of MT1-MMP act inh, marked with its call; RFP signal change, %; measured here: RFP expression control read;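 0 = vehicle wells; hits needed this value within 50% of zero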
* hit, by the source's call; i = inactive; u = inconclusive; x = no result given. Compounds were not picked by outcome; about 2.9% have a hit in one of these screens.

SMILES	MT1-MMP act inh	MT1-MMP act inh RFP	CSC inhib	PABP FP inh	eIF4H FP inh	Yeast UUG start	Rce1 inhib	Env fusion inh	others
CCn1c(SCC(=O)Nc2cc(C)on2)nc2c(c1=O)SC(C)C2 (stereo unspecified)	-5	-2	-7	-1	-10	-24	i	x
O=C1c2ccccc2[C@@H]2C[C@H]3O[C@H]3CCN12	2	5	x	x	x	-29	x	8
Cc1ccc(CSc2nnc(-c3cccnc3)n2N)cc1	3	2	-14	-3	0	-7	i	-15
Cc1c(C(=O)N2CCCC(C(F)(F)F)C2)oc2ccccc12 (stereo unspecified)	6	2	-10	x	x	-16	x	x
CCOC(=O)C1CCCN(C(=O)CN2C(=O)C(CC)Oc3ccc(C)cc32)C1 (stereo unspecified)	-7	1	-21	2	-6	-6	i	-10
COc1ccc(NS(=O)(=O)c2ccc(NC(=O)C(C)(C(F)(F)F)C(F)(F)F)cc2)nn1	7	5	-5	-16	-3	1	i	x
CC(=O)OC1COC(n2ccc3ccccc32)C(OC(C)=O)C1OC(C)=O (stereo unspecified)	10	8	-10	-3	2	-5	i	-9
O=C(CN1C(=O)NC2(CCCCCCC2)C1=O)N1CCOCC1	-2	0	x	5	6	x	i	x
COc1cc(CN2CCN(C(=O)CC(C)C)CC2)cc(OC)c1OC	2	3	2	1	-2	-3	i	x
COc1cc(OC)cc(C(=O)Nc2ccc(S(=O)(=O)Nc3ccccn3)cc2)c1	0	1	x	2	-6	-2	i	-49
C/C(=N\NC(=O)c1nnn(-c2nonc2N)c1C)c1ccc(-c2ccccc2)cc1	2	6	x	-2	-3	-15	i	-2
CC(=O)Oc1ccc(Cn2c(C)c(C(=O)N(C)Cc3ccc(F)cc3)sc2=O)cc1	0	-10	x	x	x	-16	x	8
COc1ccc(C(C(=O)NCC2CCCO2)N(Cc2ccco2)C(=O)c2snc(C(N)=O)c2N)cc1OC (stereo unspecified)	2	5	-3	1	0	3	i	-1
CCOC(=O)NC1CCS(=O)(=O)C1 (stereo unspecified)	-1	3	2	4	1	-16	x	-11
O=C(Nc1nc2ccccc2[nH]1)c1ccccc1	3	4	23	2	-2	x	i	x
CN(Cc1ccccc1)CC(O)COc1ccc(CNCc2ccc(Cl)s2)cc1 (stereo unspecified)	4	1	-1	4	5	-4	i	4
CCOC(=O)N1CCN(C(=O)CNC(=O)C23CC4CC(CC(C4)C2)C3)CC1	0	2	1	4	-7	-6	i	-1
COc1cc(/C=N/NC(=O)c2c(C)nc3ccc(Cl)cn23)cc(OC)c1OC	1	1	-16	-2	-9	-2	i	1
O=C(Nc1ccc(F)cc1)C1CCN(S(=O)(=O)c2ccc3[nH]c(=O)oc3c2)CC1	1	2	-9	9	-5	-6	i	3
CN(C)c1cc(C(=O)N(C)c2ccccc2)ncn1	3	8	x	x	x	-6	x	-1
Cc1cccc(-c2nc3ccccc3c(=O)n2NC(=O)c2cccnc2Cl)c1	-4	-1	-5	-10	-2	-8	i	-11
CCOC(=O)C1CCN(c2ccc([N+](=O)[O-])cc2S(=O)(=O)N2CCOCC2)CC1	0	0	x	3	7	0	i	7
O=C(CSc1nnc(-c2ccc(O)cc2)o1)Nc1ccccc1	2	5	-6	10	3	-9	x	-87
COc1ccccc1-c1cnc(C(O)c2ccc(Cl)c(Cl)c2)[nH]1 (stereo unspecified)	5	-3	x	x	x	-17	x	23
COc1cccc(-c2nn(-c3ccccc3)cc2CNC(C)Cn2cncn2)c1 (stereo unspecified)	8	6	6	-2	-6	-21	i	9
CCc1ccc(CNC(=O)c2ccc(NC(=O)C3=CSCCO3)cc2)cc1	5	1	-8	0	-15	-17	i	-1
Cc1cc(NC(=O)NC2CC(=O)N(c3ccc4c(c3)OCCO4)C2)no1 (stereo unspecified)	-3	-2	-2	4	1	-9	i	11
C=CCn1c[n+](CC(=O)c2ccc(Br)s2)c2ccccc21	-6	-1	-15	-22	14	x	i	8
CCn1nnnc1SCC(=O)Nc1ccc2c(c1)OCO2	-5	-2	-8	-12	-12	-18	i	-19
Cc1ccc(C)c(NC(=O)c2cc(S(=O)(=O)N3CCOCC3)cn2C)c1	x	x	-10	0	-7	-6	i	-26
CSc1ccc(S(=O)(=O)N2CCC(C(=O)NCC3CCCO3)CC2)cc1 (stereo unspecified)	4	8	2	28	3	-1	x	2
CCCCN(C(C)=O)c1ccc2c(c1)C1CC2CCN1Cc1ccccc1 (stereo unspecified)	2	-1	x	x	x	-6	x	11
Cc1ccc(NC(=O)/C(=C/c2ccco2)c2ccccc2)c(C)c1	-4	-2	-5	0	-2	-6	i	x
COc1ccccc1OCC(=O)Nc1ccc2c(c1)OCO2	4	5	1	9	45	-7	i	-24
CCOC(=O)C1=C(N)Oc2ccc3ccccc3c2C1c1ccc(O)cc1 (stereo unspecified)	-3	-1	46	-7	-17	-3	i	-7
CN1/C(=C\C(=O)c2cccnc2Cl)C(C)(C)c2ccccc21	7	-2	-15	-5	-6	-18	i	-3
CCCN(C(=O)CCSc1ccc(F)cc1)c1c(N)n(Cc2ccccc2)c(=O)[nH]c1=O	-1	-2	-9	0	-3	7	i	19
CS(=O)(=O)c1ccc2nc(NC(=O)c3ccc(N4C(=O)CCC4=O)cc3)sc2c1	x	x	-4	-6	-2	x	i	x
COC(=O)c1cc(-c2ccc(Br)cc2)c2c(=O)[nH]c(=O)n(C)c2n1	1	3	-3	-5	-8	0	i	-6
CCOC(=O)C1CCCN(CCC(C)c2ccccc2)C1 (stereo unspecified)	-8	1	-5	4	2	-18	i	3

Some of these compounds in order of molecular weight, falling:
SMILES	MT1-MMP act inh	MT1-MMP act inh RFP	CSC inhib	PABP FP inh	eIF4H FP inh	Yeast UUG start	Rce1 inhib	Env fusion inh	others
CCCN(C(=O)CCSc1ccc(F)cc1)c1c(N)n(Cc2ccccc2)c(=O)[nH]c1=O	-1	-2	-9	0	-3	7	i	19
CS(=O)(=O)c1ccc2nc(NC(=O)c3ccc(N4C(=O)CCC4=O)cc3)sc2c1	x	x	-4	-6	-2	x	i	x
C=CCn1c[n+](CC(=O)c2ccc(Br)s2)c2ccccc21	-6	-1	-15	-22	14	x	i	8

Next structures
SMILES	MT1-MMP act inh	MT1-MMP act inh RFP	CSC inhib	PABP FP inh	eIF4H FP inh	Yeast UUG start	Rce1 inhib	Env fusion inh	others
CCn1c(SCC(=O)N2CC(=O)Nc3ccccc32)nnc1-c1ccoc1C	3	2	4	-2	-4	-6	i	23
CC(C)n1c(SCC(=O)Nc2nc3c(s2)CCCC3)nc2c1c(=O)n(C)c(=O)n2C	-10	-14	12	4	3	19	i	87*
CN(CC(=O)Nc1c(Cl)cccc1Cl)C(=O)C1CC(=O)N(Cc2ccccc2)C1 (stereo unspecified)	-2	-3	-8	x	x	-1	x	x
CCOc1ccccc1CN1CCNC(=O)C1CC(=O)N(C)C1CCOCC1 (stereo unspecified)	-1	1	-11	2	5	-5	i	-1
COc1ccc2[nH]c3c(=S)nc[nH]c3c2c1	6	0	-4	2	-9	x	i	-41
COc1ccccc1C(=O)NCC1CCN(c2ccc(S(=O)(=O)N3CCOCC3)cc2)CC1	4	-2	-12	3	7	x	i	x
CCOC(=O)C1(C)CCCCN1C(=O)c1ccc(N(C)C)cc1 (stereo unspecified)	-1	2	x	x	x	-4	x	45
CCn1nnnc1SCC(=O)N1CCCc2ccccc21	-11	-3	-1	2	-1	10	i	x
O=C1c2ccccc2-c2onc3ccc(N4CCCC4)c1c23	-9	28	x	-2	u	x	i	31
COc1cc(OC)cc(C(=O)N2CCN(c3ccccn3)CC2)c1	1	1	-11	2	-1	-10	i	3
CCN(CC)c1ccc(S(=O)(=O)N2CCOCC2)cc1NC(=O)C1CC1	-2	0	x	x	x	1	x	0
CN1C(=O)N(CC(=O)N2CCN(c3ccccc3F)CC2)C(=O)C12CCCCC2	-1	-1	-8	x	x	-12	x	x
COc1ccc(Br)cc1CNC(=O)CCc1nc(-c2ccc(C)cc2)no1	-2	-10	-15	-5	2	1	i	x
O=C(NCc1ccccc1F)C1CCN(S(=O)(=O)c2ccccc2)CC1	2	4	15	3	-13	3	i	-5
Cc1nnc2n(-c3ccccc3)c(=O)c3ccccc3n12	-1	4	-8	x	x	-12	i	4
CN(C)C(=O)N1CCC(C(=O)NCc2cccs2)CC1	0	2	-17	2	11	-16	i	x
CC(C)(C)C(=O)NC(NC(=S)Nc1ccc(S(N)(=O)=O)cc1)C(Cl)(Cl)Cl (stereo unspecified)	2	1	-5	75	6	x	i	x	eIF4H FP inh retest=1;PABP FP inh retest=7
C[C@H](NC(=O)c1ccccc1Cl)C(=O)NCCc1ccc(S(N)(=O)=O)cc1	-2	3	-2	-5	-8	-4	i	4
CCC(C)(C)C1CCc2[nH]nc(C(=O)NCC3CC3)c2C1 (stereo unspecified)	0	-6	-15	x	x	-14	x	18
Cc1cc([N+](=O)[O-])nn1Cc1ccc(F)cc1	4	4	x	8	-1	x	i	1
O=S(=O)(NCc1ccc(C(F)(F)F)cc1)c1ccc(-n2cnnn2)cc1	-2	0	-6	1	5	-12	i	-8
O=C(C1=C(O)C(=O)N(CCc2ccccc2)C1c1ccncc1)c1cc2ccccc2o1 (stereo unspecified)	4	-1	-2	3	-5	x	i	0
O=C(NCc1ccco1)c1ccc(CS(=O)(=O)Cc2ccc(Cl)cc2)o1	-2	-2	x	1	-13	3	i	x
S=c1[nH]nc(Cc2cccs2)n1-c1cccc2ccccc12	-1	2	-9	-2	-10	x	i	-4
Cc1c(NC(=O)c2ccccc2)c(=O)n(-c2ccccc2)n1C	5	6	-4	-6	-11	-4	i	x
Cc1nc(-c2cc(-c3ccc(Cl)cc3)no2)cs1	-3	-17	6	0	17	x	i	-48
Cc1c(C(=O)NCc2cccc(Cl)c2)sc(=O)n1Cc1ccc(C(=O)N(C)C)cc1	-3	-10	x	x	x	-12	x	-112
O=C(Cc1ccc2c(c1)CCCC2)Nc1ccc2ccccc2c1	4	9	19	3	5	x	i	x
Cn1cnnc1Sc1ccc(C(=O)NCCC(c2ccccc2)c2ccccc2)cc1[N+](=O)[O-]	-1	-3	-7	-9	2	-25	i	13
Nc1nc2nccc(-c3cccnc3)n2n1	4	1	x	9	-4	0	i	-12
CCCN(Cc1cc2cc(C)ccc2[nH]c1=O)C(=O)c1cccc([N+](=O)[O-])c1	1	0	4	-2	-4	-19	i	14
Cc1cc(C)nc(SCc2ccc(C(=O)N/N=C3\CCCC(=O)C3)cc2)n1	-4	-4	0	10	-3	x	i	11
CCOc1ccc(N=C(NN)c2ccc3ccccc3n2)cc1	3	7	-7	13	-12	x	i	-13
CCOc1c(Br)cc(Br)cc1/C=C1\SC(N)=NC1=O	-7	-1	-13	27	10	-15	i	5
CCOC(=O)Cn1c(=O)oc2cc(S(=O)(=O)Nc3cccc(C)c3)ccc21	3	0	-5	-4	-4	-6	i	-12
COc1ccc(S(=O)(=O)O/N=C2\CCSc3ccc(C)cc32)cc1	0	2	-4	8	-1	-3	i	7
